# H5N1 CPE – MDCK cell protection from H5N1 avian flu. actives 0.07% (n = 96,000). cytopathic effect, luminescence, 72 h; hits give high values; no value below 0 was filed and about half of the inactive calls have no number; reference of the scale not given here. inhibition, % at 50 µM; in the data active means inhibition above about 25%
# An asterisk follows results filed as active; i = inactive.
SMILES,H5N1 CPE
CCNS(=O)(=O)c1ccc(NS(C)(=O)=O)cc1,0.5
O=C(NCCN1CCOCC1)c1cc(=O)[nH]c2ccc(Br)cc12,i
Cc1cccc(COc2ccccc2/C=N/Nc2ccc([N+](=O)[O-])cc2)c1,i
CCc1c(C(=O)Nc2ccc(OC)cc2)[nH]c(C)c1C(C)=O,i
OC(COCc1ccccc1)Cn1cnc2ccccc21 (stereo unspecified),0.4
NC(=S)Nc1cccc2cc3ccccc3cc12,i
CCNC(=O)COc1ccc(S(=O)(=O)Nc2ccccc2)cc1,1.4
O=C(NC1CCCC1)C1(c2ccccc2)CCN(S(=O)(=O)c2ccccc2)CC1,1.1
COC(=O)c1[nH]c2ccc(Br)cc2c1NC(=O)CN1CCCCC1CCO (stereo unspecified),1.7
O=C(Nc1cccc(S(=O)(=O)C(F)F)c1)c1ccc(S(=O)(=O)N2CCOCC2)cc1,0.6
OC(c1ccccc1)(c1ccccc1)C1CCNCC1,i
COc1ccc(CCNC(=O)c2cnn(-c3ccc(C)c(C)c3)c2NC(=O)c2ccco2)cc1OC,i
CCOc1ccc(/C=N/N(C)c2ccccc2)cc1OC,i
O=C(c1ccc(Cl)cc1)c1cnc(-c2ccccc2)s1,i
CCOC(=O)CCc1c(C)nc(SCC(=O)O)c(C#N)c1C,0.3
O=C(Cn1cnc2ccc(Br)cc2c1=O)c1cccs1,i
O=C(Cn1cnc2ccccc2c1=O)c1cccs1,i
c1ccc(SCc2nc3ccccc3[nH]2)cc1,i
O=C(NC1CCCc2ccccc21)c1cccnc1 (stereo unspecified),i
CN1C(=O)c2ccccc2Sc2ccc(C(=O)N3CCC4(CC3)OCCO4)cc21,1.9
COc1ccc(/C=C/C(=O)NC(=S)NNC(=O)Cc2cccs2)cc1,i
Cc1ccc(-c2nc(S(=O)(=O)c3ccc(F)cc3)c(SCC(=O)NCC3CCCO3)o2)cc1 (stereo unspecified),0.3
CCCCCn1c(CN2CCN(c3cccc(Cl)c3)CC2)nc2c1c(=O)[nH]c(=O)n2C,0.6
COC(=O)C1=C(O)/C(=C\c2ccc(CNC(=O)C(=O)Nc3ccc(C)c(C)c3)o2)N=C1C,1.0
O=C(O)CCCCCNC(=O)c1ccccc1Br,i
COc1ccc(CCNC(=O)c2ccc(N3CCCC3=O)cc2)cc1OC,i
C=CCNC(=O)c1c(N)n(-c2ccc3c(c2)OCO3)c2nc3ccccc3nc12,i
O=c1c2[nH]c3ccccc3c2ncn1Cc1ccccn1,0.1
CC1CN(CCC(=O)Nc2ccc3c(c2)CCC3)CC(C)O1 (stereo unspecified),0.9
CC1(C)C2([N+](=O)[O-])CN3CC1([N+](=O)[O-])CN(C2)C3c1ccccc1 (stereo unspecified),0.5
CCCCOC(=O)c1ccc(NC(=O)Nc2ccc(OC)c(OC)c2)cc1,i
Cc1scc(C(=O)NNC(=S)NCC2CCCO2)c1C (stereo unspecified),0.5
Cc1cc(C(=O)NCCc2ccccc2)ccc1[N+](=O)[O-],0.9
Cc1ccc(C)c(NS(=O)(=O)c2cc(C(=O)NCc3ccccn3)ccc2Cl)c1,i
Cc1ccccc1NC(=O)CN1C(=O)NC(C)(c2ccc3c(c2)OCO3)C1=O (stereo unspecified),i
CCC(C(=O)NC1CCCC1)N(C(=O)c1snc(C(N)=O)c1N)c1ccc2c(c1)OCCO2 (stereo unspecified),i
COc1cc2c(=O)nc3n(c2cc1OC)C(c1ccccc1)N=C(N)N3 (stereo unspecified),i
NC(=S)n1[nH]c(-c2ccc([N+](=O)[O-])cc2)c(N=Nc2ccc(O)cc2)c1=O,1.6
O=C(COC(=O)c1cncc(Br)c1)NC1CC1,i
Cc1ccc(C)c2[nH]c(=O)c(CN(CC3CCCO3)C(=O)NC3CCCCC3)cc12 (stereo unspecified),i
CCCCCSc1cc(OC)c(CCNC)cc1OC,i
Cc1ccc(N2C(=O)/C(=C/c3ccc(CN(CCC#N)S(C)(=O)=O)o3)C(=O)NC2=S)cc1C,1.0
CC1(C)CC(=O)C(C=NCCCn2ccnc2)=C(O)C1,1.0
Cc1cc(C)cc(OCc2ccc(C(=O)O)o2)c1,1.1
O=C(NC1CCCCCCC1)NC1CCCCC1,1.9
CCN(CC)c1nc2ccccc2n2cnnc12,3.3
Cc1ccc(Nc2nc(CSc3nnnn3-c3ccccc3)cc(=O)[nH]2)cc1,i
CCOC(=O)C1C(=O)NC(c2ccccc2)=NC1c1ccc(F)cc1 (stereo unspecified),2.4
C#Cc1ccc(C(=O)Nc2cc(C(N)=O)ccc2N2CCOCC2)cc1,1.4
COc1ccc(N(CN2C(=O)c3ccccc3C2=O)C(=O)C(C)C)cc1,i
CCNC(=O)COc1cccc2ccccc12,0.1
Cc1ccc(SCCC(=O)Nc2c(C)n(C)n(-c3ccccc3)c2=O)cc1,0.2
Cc1ccc(C(=O)/C=C/c2cn(CN3CCN(C)CC3)c3ccccc23)cc1,i
COC(=O)Cn1c(CCS(=O)(=O)c2ccc(Cl)cc2)nc2ccccc21,0.9
O=C(c1cc2c(s1)-c1ccccc1OC2)N1CCC2(CC1)OCCO2,i
CSCCC(NS(=O)(=O)c1ccc(Cl)cc1)C(=O)OCC(=O)NC1CCCCC1 (stereo unspecified),0.2
COc1ccccc1N1CCN(C(=O)C(C)N(c2ccccc2)S(C)(=O)=O)CC1 (stereo unspecified),1.2
COC(=O)c1ccc(NC(=O)C(C)Oc2ccccc2)cc1 (stereo unspecified),i
Cc1ccccc1NCC(=O)c1ccc(Br)cc1,1.1
O=C(NC1CCCCCC1)c1cc2n(n1)C(C(F)(F)F)CC(c1ccco1)N2 (stereo unspecified),1.1

# Further compounds
SMILES,H5N1 CPE
Cc1cc(C)c(C)c(OCc2nc(-c3cccnc3)no2)c1,i
COC(=O)C1=C(C)NC(=O)NC1c1cccc(OC)c1OCc1ccccc1 (stereo unspecified),i
CN(CC(=O)Nc1cccc2c1CCCC2)S(=O)(=O)c1ccc(Br)cc1,0.8
O=S(NCc1ccccc1)C12CC3CC(CC(C3)C1)C2 (stereo unspecified),1.1
CCS(=O)(=O)N1CCC(C(=O)N2CCC3(CC2)OCCO3)CC1,i
COc1ccc(C2CC(c3ccccc3Cl)Nc3ncnn32)cc1OC (stereo unspecified),0.5
Cc1ccc(NC(=O)c2ccc3c(c2)OCCO3)cc1,i
CC(=O)c1sc2nc(-c3cccs3)ccc2c1N,1.6
Cc1cc(C)c(N2C(=NC(=O)CCCC(=O)O)SC3CS(=O)(=O)CC32)c(C)c1 (stereo unspecified),i
COc1cc(O)oc1C=Nc1ccccc1,i
COc1cc(CN2C(=O)C(NC(=O)c3ccco3)(C(F)(F)F)C3=C2CC(C)(C)CC3=O)cc(OC)c1 (stereo unspecified),0.0
CCOc1ccc(C(F)(F)F)cc1NC(=O)COc1ccc(C(F)(F)F)cc1[N+](=O)[O-],1.2
CCCn1c(NC(=O)c2cccc(C)c2C)nc2ccccc21,0.0
Cc1ccc2nc3c(cc(C#N)c(=O)n3-c3nccs3)c(=O)n2c1,2.2
Cc1cc(Cl)c(S(=O)(=O)NC2CCCCC2)cc1OCC(=O)Nc1nncs1,13
N#CC1=C(N)Oc2n[nH]c(-c3cccs3)c2C1c1cccnc1 (stereo unspecified),i
COc1cccc(OC)c1C(=O)N1CCN(Cc2ccccc2C)CC1,i
O=C(O)CC1S/C(=N\N=C/c2ccccc2)N(c2ccc(O)cc2)C1=O (stereo unspecified),i
O=C(CSc1nnc(CNC(=O)c2cccs2)o1)c1ccccc1,4.0
COc1ccc(-n2c(O)c(C=NC3CC3)c(=O)[nH]c2=O)cc1,i
CC(=O)Oc1ccccc1C1OC(=O)c2ccccc2N1C(C)=O (stereo unspecified),i
COc1ccc(CCCc2nnc(SCC(=O)Nc3cc(C)c(C)cc3Br)o2)cc1,i
Cc1sc2c(c1C)c(=O)nc1scc(CC(=O)O)n12,i
COc1cc(C)c(S(=O)(=O)n2nnc3ccccc32)cc1C,0.4
CCN(CC)CCNC(=O)CCn1c(=S)[nH]c2cc3c(cc2c1=O)OCO3,i
COc1ccc(-n2c(SC)nc(O)cc2=O)cc1,i
O=c1c2[nH]c3ccc(F)cc3c2ncn1CCN1CCN(Cc2ccccc2)CC1,i
CCOc1cc(C)nc(N2CCN(C3CCCCC3)CC2)n1,i
CCCCN(CC)C(=O)CN1C(=O)c2ccccc2C1=O,i
CCCSc1nc2c(cnn2-c2ccccc2)c(=O)[nH]1,i
CN(Cc1nc2ccccc2n1C)S(=O)(=O)c1ccc(Cl)cc1,i
CCCCNC(=O)CC1N=C2c3ccccc3N=C(SCC(=O)Nc3ccccc3C)N2C1=O (stereo unspecified),1.3
CCOC(=O)c1cnc(-n2nc(C)cc2C)nc1Nc1ccc(C)cc1,0.9
Nn1c(SCc2nc3ccccc3[nH]2)nnc1C1CCCCC1,i
Cc1cc(C)cc(N(C(C)C(=O)N2CCCCC2)S(C)(=O)=O)c1 (stereo unspecified),i
O=C(Nc1ccc2c(c1)OCO2)C1CC(c2c(F)cccc2Cl)=NO1 (stereo unspecified),i
Cc1cccc(Sc2c([N+](=O)[O-])ncn2C)c1,1.4
Cc1nc(N2CCN(Cc3ccccc3)CC2)nc2c1C(=O)CC(C)C2 (stereo unspecified),i
O=C(COC(=O)c1cccnc1Nc1cccc(C(F)(F)F)c1)NCCN1C(=O)CSC1=O,0.6
CCN(CC)CCNC(=O)c1ccccc1N,0.5
COc1cc(-c2nnc3n2N=C(c2ccccc2)CS3)cc(OC)c1OC,1.3
CN(C)c1ccc(-n2cc3c(=O)n(C)c(=O)n(C)c3c2)cc1,1.4
O=C(Cn1nc(-c2ccccc2)ccc1=O)NCC1CCCO1 (stereo unspecified),i
CCOc1ccc(CN(Cc2ccco2)C(c2cccs2)c2nnnn2C(C)(C)C)cc1 (stereo unspecified),1.1
Cc1ccc2occ(CN3CCN(c4ccccc4)CC3)c(=O)c2c1,1.8
CCSC1=C(C#N)C(c2cccc(Br)c2)CC(=O)N1 (stereo unspecified),0.8
C=CCn1c(=O)/c(=C2/SC(C)=C(C)N2CC)s/c1=C1/C(=O)N(CC)C(=S)N1c1ccccc1,0.1
CNc1cc(N2CCCCCC2)ccc1[N+](=O)[O-],1.2
CC(C)c1nnc(NC(=O)CCN2C(=O)c3ccccc3C2=O)s1,0.6
COc1ccccc1N1CCN(c2cc(N3CCCC3)nc(C)n2)CC1,i
CCc1nnc2sc(-c3ccc(NC(=O)c4ccco4)cc3)nn12,14
CCc1c(C(C)O)oc2ccc3c(C)cc(=O)oc3c12 (stereo unspecified),0.3
Cc1ccnc(NC(=O)C2CCN(S(=O)(=O)c3cccc4nonc34)CC2)c1,i
CCOc1ccc(OCC)c(NC(=O)CN2CCN(C(=O)c3ccco3)CC2)c1,1.1
COc1ccc(OC)c2[nH]c(=O)c(CCNC(=O)C(C)(C)C)cc12,i
CCOC(=O)c1c(C)[nH]c(N=Nc2ccc(C)cc2)c1C,1.4
O=C(CCC(=O)N1CCc2ccccc2C1)N1CCN(S(=O)(=O)c2ccccc2)CC1,1.5
CN1CCc2nc3sc(C#N)c(N)c3c(-c3cccs3)c2C1,5.2
Cc1cc(N)n2nc(C)c(-c3ccccc3)c2n1,0.3
COc1ccc(-n2cnnc2SCC(=O)NC2CCS(=O)(=O)C2)cc1 (stereo unspecified),i

# Carrying on.
SMILES,H5N1 CPE
COc1ccccc1NC1C=CS(=O)(=O)C1 (stereo unspecified),13
Cc1ccccc1NC(=O)Cn1c(C)nc2ccc(NC(=O)C3CC3)cc2c1=O,0.4
CC(C)N(C(=O)Cn1cnc2c(cnn2-c2ccccc2Cl)c1=O)C(C)C,0.9
Cc1c(C2(c3c(C)n(C)n(-c4ccccc4)c3=O)C(=O)Nc3ccc(F)cc32)c(=O)n(-c2ccccc2)n1C,i
CCC(=O)Nc1ccc(S(=O)(=O)N2CCN(c3ccc(F)cc3)CC2)cc1,i
COC(=O)c1ccc(/C(O)=C(\C#N)c2nc3ccccc3s2)cc1,i
COc1ccc(OC)c(C2CC(=O)NC(SC)=C2C#N)c1 (stereo unspecified),1.1
COc1ccc(-c2nnc(-c3cccs3)o2)cc1OC,3.5
CCOC(=O)c1c(C)n(C)c2ccc(OC(C)C(=O)OC)cc12 (stereo unspecified),0.1
Cc1c(Br)c([N+](=O)[O-])nn1C(C)C(=O)Nc1ccc2c(c1)OCO2 (stereo unspecified),i
CC(CCc1ccccc1)NC(=O)c1ccc(C(=O)NC(C)CCc2ccccc2)cc1 (stereo unspecified),1.5
CCOC(=O)N1CCN(c2c(N3CCN(c4cccc(C(F)(F)F)c4)CC3)c(=O)c2=O)CC1,i

# Grouped by structure, those above with a tert-butyl group
SMILES,H5N1 CPE
CCOc1ccc(CN(Cc2ccco2)C(c2cccs2)c2nnnn2C(C)(C)C)cc1 (stereo unspecified),1.1
COc1ccc(OC)c2[nH]c(=O)c(CCNC(=O)C(C)(C)C)cc12,i

# Some of these compounds in order of SMILES length, smallest number first:
SMILES,H5N1 CPE
COc1ccccc1NC1C=CS(=O)(=O)C1 (stereo unspecified),13
Cc1cc(N)n2nc(C)c(-c3ccccc3)c2n1,0.3
COc1ccc(-c2nnc(-c3cccs3)o2)cc1OC,3.5
CCc1c(C(C)O)oc2ccc3c(C)cc(=O)oc3c12 (stereo unspecified),0.3
COc1ccc(OC)c(C2CC(=O)NC(SC)=C2C#N)c1 (stereo unspecified),1.1
CCOC(=O)c1c(C)[nH]c(N=Nc2ccc(C)cc2)c1C,1.4
COc1ccccc1N1CCN(c2cc(N3CCCC3)nc(C)n2)CC1,i
CCOC(=O)c1c(C)n(C)c2ccc(OC(C)C(=O)OC)cc12 (stereo unspecified),0.1
COc1ccc(-n2cnnc2SCC(=O)NC2CCS(=O)(=O)C2)cc1 (stereo unspecified),i
COc1ccc(OC)c2[nH]c(=O)c(CCNC(=O)C(C)(C)C)cc12,i
CCOc1ccc(OCC)c(NC(=O)CN2CCN(C(=O)c3ccco3)CC2)c1,1.1
Cc1ccccc1NC(=O)Cn1c(C)nc2ccc(NC(=O)C3CC3)cc2c1=O,0.4
Cc1ccnc(NC(=O)C2CCN(S(=O)(=O)c3cccc4nonc34)CC2)c1,i
CC(CCc1ccccc1)NC(=O)c1ccc(C(=O)NC(C)CCc2ccccc2)cc1 (stereo unspecified),1.5
Cc1c(Br)c([N+](=O)[O-])nn1C(C)C(=O)Nc1ccc2c(c1)OCO2 (stereo unspecified),i
O=C(CCC(=O)N1CCc2ccccc2C1)N1CCN(S(=O)(=O)c2ccccc2)CC1,1.5
CCOC(=O)N1CCN(c2c(N3CCN(c4cccc(C(F)(F)F)c4)CC3)c(=O)c2=O)CC1,i
Cc1c(C2(c3c(C)n(C)n(-c4ccccc4)c3=O)C(=O)Nc3ccc(F)cc32)c(=O)n(-c2ccccc2)n1C,i

# Not all compounds are listed, so the mix of outcomes need not match the whole.
